Screens (PubChem)
Vaccinia pol inh – vaccinia E9 polymerase processive synthesis inhibition. in vitro processive DNA synthesis, absorbance read-out; hits give low values; some inactives read as strong as hits. normalized absorbance, % (concentration not given with the values). hit rate 0.94% among 46,000. AID 493162;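 active = replicate mean up to 90% and picked by the depositor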;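 also: 100% = median of the test wells of a plate; 100 nL library stock went into each well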
Numbers without * were called inactive.

SMILES	Vaccinia pol inh
CC(C)(C)C1=NN(c2nc3ccc(Cl)cc3s2)C(=O)C1	93
COc1ccc(-c2nnc(Nc3ccc(Cl)cc3)c3ccccc23)cc1	101
O=C(Oc1cc(Cl)cc(Cl)c1)C12CC3CC(CC(C3)C1)C2	100
O=C(Nc1cc2ccccc2s1)Nc1ccc(F)cc1F	94
CC(=O)Nc1ccccc1N1CCOCC1	98
COc1ccc(/C=c2/[nH]/c(=C/C(=O)c3ccccc3)c(=O)[nH]c2=O)cc1OC	98
CCN(CC)C(=O)Oc1c(Br)cc(Br)c2ccc(C)nc12	100
CCc1nc2sc3c(c2c(=O)[nH]1)CCCC3	100
NC(=S)NC(=O)/C=C/c1ccccc1	100
CC(C)n1nnc(CC(=O)NN)n1	105
N#CC(C#N)=C1N=NNN1c1ccccc1	102
CC1(O)N(CC(=O)O)C(=O)OC12CCCCC2 (stereo unspecified)	98
O=C(COC(=O)c1ccc(Br)cc1)Nc1cccc2ccccc12	104
CCCCN1C(=O)C2C(c3ccccc3O)NC(C)(C(=O)O)C2C1=O (stereo unspecified)	100
Cc1ccc(NC(=O)c2cccc(Oc3ccc(C#N)cc3)c2)cc1	100
O=C(Oc1ccc(Cl)c2cccnc12)c1ccncc1	102
CCNC(=O)c1cc2c(=O)n3ccccc3nc2n(C(C)C)c1=N	100
COc1c(NC(=O)N(C)C)csc1Cl	102
O=C(NC1CCCC1)C1c2ccccc2Oc2ccccc21	101
CCC1(CC)OC(c2cccnc2)Nc2ccccc21 (stereo unspecified)	99
CC(C)C(=O)N1CC(=O)Nc2ccc(Cl)cc2C1c1ccccc1 (stereo unspecified)	106
Cc1cccc(COn2cccc(C(=O)Nc3ccc(Cl)cc3C(F)(F)F)c2=O)c1	99
O=C(C1CCCCN1S(=O)(=O)c1ccccc1)N1CCCC1 (stereo unspecified)	102
O=C(CSc1nc2ccccc2nc1N1CCOCC1)N1CCC2(CC1)OCCO2	99
CCOC(=O)/C(=C\Nc1ccc(F)c(Cl)c1)S(=O)(=O)c1ccc(Cl)cc1	100

New compounds follow:
SMILES	Vaccinia pol inh
Cc1nc2ccc(N=Cc3ccccc3O)cc2s1	100
CCOc1ccc(OCC)c(CC2OC(c3ccccc3)=NC2=O)c1 (stereo unspecified)	100
CCC(C)NC(=O)c1cc(Nc2ccc(C(C)C)cc2)nc2ccccc12 (stereo unspecified)	100
COc1ccc(OC)c(Nc2nc(-c3c(C)nc4sccn34)cs2)c1	99
Cc1cc(C)cc(CC(c2nc3ccccc3[nH]2)C(C)c2nc3ccccc3[nH]2)c1 (stereo unspecified)	100
O=C(/C=C/c1ccccc1)N1C(=O)OCC1c1ccccc1 (stereo unspecified)	99
CS(=O)(=O)N(Cc1ccccc1)Cc1ccccc1	101
O=C1CSC(c2ccccc2)N1C1CCCCC1 (stereo unspecified)	100
COC(=O)c1c(C)oc(C)c1S(=O)(=O)N1CCOCC1	99
COc1ccc(NC(=O)c2cc(-c3ccco3)nc3ccccc23)cc1Cl	92
O=C(O)CSCC(=O)N1CCN(Cc2ccc3c(c2)OCO3)CC1	96
CCN1CCN(c2ccc(NC(=O)c3ccc(C)cc3)cc2)CC1	94
CC(C)Cn1c(=O)c(C2=NS(=O)(=O)c3ccccc3N2)c(O)c2ccccc21	97
COC(=O)c1cccc(Oc2ncnc3sc(C)c(C)c23)c1	102
O=C1c2ccccc2O[C@@H](c2ccc(Cl)cc2)[C@@H]1O	84
CC(=O)N1CCc2cc(C(O)CN(C)Cc3ccccc3)ccc21 (stereo unspecified)	102
O=C(OCn1nnc2ccccc2c1=O)C(c1ccccc1)c1ccccc1	103
CCN(CC)C(=S)Oc1ccc(C#N)cc1	93
O=C1CS/C(=N\c2nccs2)N1	101
CC(C)S(=O)(=O)c1cscc1N1C(=O)c2ccccc2C1=O	110
COc1ccc(NC(=O)CN(c2ccc(C)cc2)S(=O)(=O)c2ccc(OC)cc2)cc1	100
CC(C)n1c(CO)nc2ccccc21	102
CC(C)N1CCCc2cc(CN)ccc21	98
Cc1ccc(S(=O)(=O)CCSc2sc(C#N)c3c2C(=O)CC(C)(C)C3)cc1	98
COC(=O)C1=C(C)N(c2ccc(C(C)C)cc2)C(=O)/C1=C\c1ccco1	100

3 compounds drawn at random from the list so far:
SMILES	Vaccinia pol inh
Cc1cc(C)cc(CC(c2nc3ccccc3[nH]2)C(C)c2nc3ccccc3[nH]2)c1 (stereo unspecified)	100
CCOc1ccc(OCC)c(CC2OC(c3ccccc3)=NC2=O)c1 (stereo unspecified)	100
O=C1c2ccccc2O[C@@H](c2ccc(Cl)cc2)[C@@H]1O	84

(listing goes on)
SMILES	Vaccinia pol inh
CCCCc1ccc(CC(=O)O)cc1	100
Cn1cc(S(=O)(=O)CC(=O)Nc2ccccc2)c2ccccc21	100
Cc1cccc(C(=O)N2CCCc3ccccc32)c1	94
CC1=CC(C)C2(COC(=O)NC3CCCCC3)COC3(CCCC3)C1C2C (stereo unspecified)	101
N#CC(C#N)=C(N=C(c1ccccc1)c1ccccc1)C(F)(F)F	94
CCN1CCCC1CNC(=O)c1ccc2c(c1)sc1nc(-c3cccc(OC)c3)cn12 (stereo unspecified)	47*
CC(C(=O)O)n1cnc2scc(-c3ccc(Cl)cc3)c2c1=O (stereo unspecified)	93
O=C(CSc1cccc[n+]1[O-])Nc1ccccc1C(F)(F)F	103
CCC1CCCCN1CC(C)(C)NS(=O)(=O)c1ccccc1 (stereo unspecified)	106
CCOC(=O)N1CCc2c(sc(NC(=O)/C=C/c3ccccc3)c2C#N)C1	114
CCOc1ccc(NC(=O)N(CCc2ccncc2)C(C)C)cc1	105
O=C(O)C=C1C2CC3CC(C2)CC1C3	100
COc1cc(NC(=O)c2cc3ccccc3cc2OCC(=O)NC(C)(C)C)c(OC)cc1Cl	101
Cc1c(C(=O)/C=C/N(C)C)nnn1-c1ccc(Cl)c(Cl)c1	108
COc1ccccc1C(=O)Nc1sccc1C#N	93
CN(C)C1CCCCC1NS(=O)(=O)c1ccccc1 (stereo unspecified)	103
O=C(CC1CCCC1)OCc1cccs1	85
CCOc1ccc(-c2csc(NC(=O)CC)n2)cc1	104
O=C(NCCN1CCOCC1)c1ccc(-c2ccccc2)cc1	100
N#Cc1ncc(C(F)(F)F)cc1S(=O)(=O)c1ccc(Cl)cc1	119
CC(C)Nc1cc(-c2ccccc2)nc2nncn12	97
O/N=c1\cc(-c2ccc3c(c2)OCCO3)oc2ccccc12	96
c1ccc(Nc2ncn[nH]2)cc1	97
CNC(=O)/C(=C\C=C\c1ccccc1)NC(=O)c1ccccc1	104
CC(C)/C=C1\CCCCC1O (stereo unspecified)	97

Additional results follow:
SMILES	Vaccinia pol inh
C=CCN(CC=C)C(=O)c1csc(Nc2ccc(C)cc2)n1	99
COc1ccc(C(=O)NCc2nc3ccccc3n2CC(C)C)cc1OC	99
CCC(=O)c1c(C)nc2n(Cc3ccccc3)c3ccccc3n12	114
CCc1ccc(C2NC(=O)c3c(sc4c3CCN(C)C4)N2)cc1 (stereo unspecified)	95
COC(=O)/C=C1\SC(NC(C)=O)=NC1=O	101
O=C(CCC(=O)N1CCOc2ccccc21)NCc1ccco1	98
COC12CCCC(C(=O)O)(CCC1)C2	100
O=C(/C=C/c1ccco1)/C=C/c1ccco1	8.6*
Cc1ccccc1CNCc1ccco1	102
Fc1cccc(Cl)c1CN1CCN(CCCNc2ncnc3scc(-c4ccccc4)c23)CC1	96
CN1C(=O)c2ccc(-c3nc4ccc(Cl)cc4c(=O)o3)cc2C1=O	100
Cc1ccc(NC(=S)NC(=O)C23CC4CCC(CC(C4)C2)C3)cc1	100
O=C(NC(=S)Nc1ccncc1)c1ccccc1	97
O=C(/C=C/c1ccc2c(c1)OCO2)OCc1ccccc1	99
O/N=C/c1cccs1	124
Cc1ccc(C(=O)N2N=C3c4ccccc4S(=O)(=O)N3C2N(C)C)cc1 (stereo unspecified)	100
Cc1ccc(C)n1Cc1ccco1	84
CC(C)(C)n1nc(C2CC2)cc1NC(=O)Nc1ccccc1	103
O=S(=O)(c1ccc(Br)cc1)C(F)(F)F	100
COc1cccc2cc(C(=O)NC3CCCCC3)c(=O)oc12	94
CCOC(=O)/C(C#N)=C1/Sc2ccccc2N1C	98
C=C(C)C(=O)Nc1ccc2c(c1)C(=O)NC2=O	100
Cc1c(OCC(=O)NC2CCCC2)ccc2c1oc(=O)c1ccccc12	103
CCN(Cc1ccccc1)c1sc(S(=O)(=O)CC)nc1S(=O)(=O)c1ccc(C)cc1	99
CCc1ccc(NC(=O)C2CCC(=O)N(c3ccc(OC)cc3)C2c2ccc(OC)cc2)cc1 (stereo unspecified)	101

(continued)
SMILES	Vaccinia pol inh
CC(=O)Nn1cnc2ccccc21	99
Cc1ccc2c(c1)NC(c1ccc(N(C)C)cc1)O2 (stereo unspecified)	96
CSc1ccc2nnc(-c3ccc(F)cc3)n2n1	74
NC(N)=NS(=O)(=O)c1ccc(N=Cc2ccccc2O)cc1	98
CC1=C(C(=O)OC(C)C(C)(C)C)C(c2cccc(Br)c2)NC(=O)N1 (stereo unspecified)	100
O=C(O)CCc1nc2ccccc2c(=O)[nH]1	97
O=C(NC1=NCCCCC1)c1ccccc1	106
Cc1ccc(C)n1CCN1CCN(S(=O)(=O)c2ccccc2)CC1	85
Clc1ncc(CN2CCN(c3ccccc3)CC2)s1	112
CC(C)Nc1nc(NC(C)C)nc(Nn2cnnc2)n1	95
CC[n+]1ccsc1N	106
Nc1ccccc1C1C=NNC1=O (stereo unspecified)	95
CC1=C(C(=O)OC2CCCC2)C(c2cccc(Cl)c2)CC(=O)N1 (stereo unspecified)	102
COc1ccc(CCN2C(=O)C(C)SC2c2cccnc2)cc1 (stereo unspecified)	101
O=C(Cc1cccc2ccccc12)Nc1ccc(N2CCOCC2)c(Cl)c1	97
Cc1cc(C)nc(SCc2cn3c(C)csc3n2)n1	106
COC(=O)c1ccc(-n2c(C)cc(C(=O)CSc3ncnc4sc5c(c34)CCC5)c2C)cc1	100
O=C(CS(=O)(=O)Cc1ccccc1)Nc1ccc2c(c1)OCCO2	101
CC(NS(=O)(=O)c1ccc(C(C)(C)C)cc1)c1ccccc1 (stereo unspecified)	99
COc1ccc(Cl)cc1NC1=NC2CS(=O)(=O)CC2S1 (stereo unspecified)	99
CCc1ccc(NC(=O)c2cc(S(=O)(=O)N3CCCC3)c[nH]2)cc1	108
Cc1cc(C)n2nc(CC(=O)NCc3ccccc3Cl)nc2n1	100
CC(=O)OCN1CCN(COC(C)=O)C1=O	100
O=C(c1ccccc1)C1CN(CC2CCCO2)CCC1(O)c1ccccc1 (stereo unspecified)	89
CCNc1nc2ccccc2n1Cc1ccccc1F	80

Other compounds
SMILES	Vaccinia pol inh
CCc1ccc(/C=C2\C(=N)N3N=C(S(C)(=O)=O)SC3=NC2=O)cc1	94
Cc1cc(C)n(C(=O)CCNC(=O)c2ccccc2)n1	100
COc1ccc2nc(C)cc(OCC(=O)Nc3cc(C)cc(C)c3)c2c1	101
Clc1ccccc1N=C/C=C1\NN=NC1c1ccc(Br)cc1 (stereo unspecified)	101
CN(C)c1cccc(C(=O)Nc2cc(C(F)(F)F)ccc2-n2ccnc2)c1	102
CSc1ccc(/C=C2\CC/C(=C\C(C)C)C2=O)cc1	108
S=c1nc[nH]c2nc[nH]c12	100
O=c1c(Cl)c(NCC2CCCO2)cnn1Cc1ccccc1 (stereo unspecified)	100
CNC(=O)c1cc(-c2ccc(F)cc2)[nH]c1C	108
O=C(CSc1nsc(SCC(=O)c2ccccc2)n1)c1ccccc1	100
c1ccc(CNCc2ccc3c(c2)OCO3)cc1	102
COc1cccc(C(=O)Nc2nc3ccc(F)cc3s2)c1	99
CCC(C)C1COC(c2cccn2Cc2c(C)cc(C)cc2C)=N1 (stereo unspecified)	105
COc1ccccc1N(CC(=O)N(C)Cc1ccccc1)S(C)(=O)=O	100
COCCn1c(C)cc(C=C2C(=O)N(C)C(=S)N(C)C2=O)c1C	100
Nn1c(COc2ccc(Cl)cc2)nc2ccccc2c1=O	103
COc1cccc2sc(NC(=O)C3COc4ccccc4O3)nc12 (stereo unspecified)	98
O=C(CSC(=S)N1CCOCC1)Nc1nc(-c2c[nH]c3ccccc23)cs1	103
COc1ccccc1CNC(=O)c1sc2ncnc(N3CCN(c4ccccc4F)CC3)c2c1C	110
COC(=O)c1ccc2c(c1)C(=O)/C(=C/c1ccccc1F)O2	96
CCOC(=O)C1CCN(c2nnc(N3C(=O)c4ccccc4C3=O)s2)CC1	112
Cc1cc(C)c2cccc(NC(=S)NC(=O)/C=C/c3ccccc3)c2n1	100
O=C(CN1C(=O)c2ccccc2C1=O)N(Cc1ccccc1)Cc1ccccc1	100
COC(=O)CSc1nc2ccccc2n1CCc1ccccc1	102
CN1CCN(C(=O)c2ccccc2NC(=O)c2ccc(F)cc2)CC1	99
COc1ccc(CN2CCN(Cc3cccc4ccccc34)CC2)cc1	107
COc1cccc(NC(=O)c2ccc3c(c2)N(C)CCS3)c1	103
COC(=O)CCC(=O)N1CCc2ccccc21	92

Filtered by structure, the compounds so far with fluorine.
SMILES	Vaccinia pol inh
O=C(Nc1cc2ccccc2s1)Nc1ccc(F)cc1F	94
Cc1cccc(COn2cccc(C(=O)Nc3ccc(Cl)cc3C(F)(F)F)c2=O)c1	99
CCOC(=O)/C(=C\Nc1ccc(F)c(Cl)c1)S(=O)(=O)c1ccc(Cl)cc1	100
N#CC(C#N)=C(N=C(c1ccccc1)c1ccccc1)C(F)(F)F	94
O=C(CSc1cccc[n+]1[O-])Nc1ccccc1C(F)(F)F	103
N#Cc1ncc(C(F)(F)F)cc1S(=O)(=O)c1ccc(Cl)cc1	119
Fc1cccc(Cl)c1CN1CCN(CCCNc2ncnc3scc(-c4ccccc4)c23)CC1	96
O=S(=O)(c1ccc(Br)cc1)C(F)(F)F	100
CSc1ccc2nnc(-c3ccc(F)cc3)n2n1	74
CCNc1nc2ccccc2n1Cc1ccccc1F	80
CN(C)c1cccc(C(=O)Nc2cc(C(F)(F)F)ccc2-n2ccnc2)c1	102
CNC(=O)c1cc(-c2ccc(F)cc2)[nH]c1C	108
COc1cccc(C(=O)Nc2nc3ccc(F)cc3s2)c1	99
COc1ccccc1CNC(=O)c1sc2ncnc(N3CCN(c4ccccc4F)CC3)c2c1C	110
COC(=O)c1ccc2c(c1)C(=O)/C(=C/c1ccccc1F)O2	96
CN1CCN(C(=O)c2ccccc2NC(=O)c2ccc(F)cc2)CC1	99

Some of the compounds tested; rates above refer to the full screens.
